# Screens as filed in PubChem.
# Mtb betalactam: beta-lactam sensitization of Mtb H37Rv; M. tuberculosis H37Rv growth with meropenem, percent inhibition; hits of this screen are not shown here; inhibition, % at 25 µM; actives 0.27% (n = 330,000); AID 434955;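 active = about 74% or more and at least 40 points above the plate without the antibiotic, then above 30% in a dose series; inconclusive = first-round hits that could not be retested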;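 also: growth measured after seven days incubation then overnight dye step; 0% = bacteria only wells and 100% = bacteria with antibiotic; twin plates without the antibiotic show which effects depend on it; some results filed as inactive read as strong as hits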
# Mtb H37Rv: M. tuberculosis H37Rv growth inhibitors, H37Rv strain (AID 1626). inhibition, % at 10 µM; hits with a dose series show IC50 in µM. actives 0.95% (n = 220,000). M. tuberculosis H37Rv growth inhibition; higher % means a stronger effect;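 active = confirmed in a dose series; inconclusive = inhibition above 80% but not taken into the dose series; inactive = below 80% or under 30% at every dose of the series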;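 also: bacteria incubated seven days before Alamar blue readout; 0% = bacteria only wells and 100% = bacteria with antibiotic wells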
# Arbovirus inh: antivirals against arbovirus infection. arbovirus infection cell-based antiviral screen. inhibition, % at 10 µM. actives 0.37% (n = 200,000). AID 1251;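 active = inhibition from about 30%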;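 also: bluetongue infection of BSR cells; cell survival read as ATP light after 72 h; 0% = infected wells without compound and 100% = uninfected wells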
# YopH PTP inh: YopH (Yersinia) phosphatase inhibition; fluorescence Ex485/Em525; inhibition, %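 (about 10 µM by stock and volumes)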; actives 0.16% (n = 140,000); AID 898;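 active = inhibition of 50% or more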;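 also: controls were vehicle for no effect and minimum signal wells for full effect; inactives centre near -20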
# RecA splice inh: Mtb RecA intein splicing inhibition; P9WHJ3; cell-free RecA intein splicing, fluorescence; inhibition, %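 (about 9 µM by stock and volumes)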; actives 0.75% (n = 290,000); AID 2221; in the data active = inhibition above about 30%; inconclusive = no clear call, values can overlap the other calls;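 also: 0% = vehicle wells and 100% = reference inhibitor control wells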
# Target sequence (P9WHJ3 whole entry, looked up, canonical isoform): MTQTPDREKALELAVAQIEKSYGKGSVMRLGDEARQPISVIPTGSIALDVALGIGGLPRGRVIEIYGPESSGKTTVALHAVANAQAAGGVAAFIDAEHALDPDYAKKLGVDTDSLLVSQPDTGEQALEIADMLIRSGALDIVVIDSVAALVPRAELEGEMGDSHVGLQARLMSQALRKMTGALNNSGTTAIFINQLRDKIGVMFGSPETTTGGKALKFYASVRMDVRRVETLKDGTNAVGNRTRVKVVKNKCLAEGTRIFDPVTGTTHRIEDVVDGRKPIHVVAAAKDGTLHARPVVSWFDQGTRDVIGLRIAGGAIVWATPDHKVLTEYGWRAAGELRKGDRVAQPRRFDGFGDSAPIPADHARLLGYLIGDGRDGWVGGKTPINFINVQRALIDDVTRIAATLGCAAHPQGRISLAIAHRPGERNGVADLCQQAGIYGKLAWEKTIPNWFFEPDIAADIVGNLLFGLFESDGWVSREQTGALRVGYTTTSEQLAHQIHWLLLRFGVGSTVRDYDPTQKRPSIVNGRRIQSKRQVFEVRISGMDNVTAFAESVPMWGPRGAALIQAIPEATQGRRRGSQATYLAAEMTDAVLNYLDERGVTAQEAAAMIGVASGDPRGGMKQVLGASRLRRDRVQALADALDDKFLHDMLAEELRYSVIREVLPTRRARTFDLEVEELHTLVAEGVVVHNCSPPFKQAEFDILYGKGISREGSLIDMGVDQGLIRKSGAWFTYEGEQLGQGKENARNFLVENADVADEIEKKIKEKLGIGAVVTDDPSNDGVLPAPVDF
# Arbovirus inh repeat: also measured in Arbovirus inh; calls as there; inhibition, %; measured here: 10K subset replicate screen; many hits read low in the repeat;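 first of two repeat runs on a subset; 0% = infected and 100% = uninfected wells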
# Active calls of the source: *; ? = inconclusive; / = not tested or not shown.
SMILES,Mtb betalactam,Mtb H37Rv,Arbovirus inh,YopH PTP inh,RecA splice inh,others
COc1cccc(N2CCN(C(=O)CCNS(=O)(=O)c3ccc4c(c3)c(=O)n(C)c(=O)n4C)CC2)c1,-3,-10%,3,/,1.5,
COCCSc1nc2sc3c(c2c(=O)n1-c1ccccc1)CCN(C)C3,/,6%,11,4,1.6,
Cc1ccc(C)c(Nc2nc(-c3ccncc3)nc3ccccc23)c1,-1,/,/,/,-0.1,
Cc1ccc(CN2C(=O)CSC2c2cccnc2)cc1 (stereo not given),6,-19%,/,/,/,
C=C(C)Cn1c(-c2ccccc2)nc2ccccc21,1,0%,2,-10,2.5,Arbovirus inh repeat=4
COc1ccc(NC(=O)Cn2nnc3ccccc32)c([N+](=O)[O-])c1,-4,-5%,0,/,-3.2,
N#Cc1ccc(NC(=O)c2cc(S(=O)(=O)N3CCOCC3)ccc2N2CCCC2)cc1,-8,/,/,/,1.2,
CC(C)CCC(CCNCc1ccccn1)c1ccc(Cl)cc1 (stereo not given),55,/,/,/,5.8,
N#CCCn1cc(C(=O)Nc2ccccc2Cl)c(-c2ccc([N+](=O)[O-])cc2)n1,-2,11%,4,-19,0.8,
COc1ccc(CCNC(=O)CCCc2ccccc2)cc1,-2,/,/,/,0.7,
COCCNC(=O)NC(=O)CN1CCN(C(c2ccccc2)c2ccccc2)CC1,6,-4%,1,/,-0.2,
C=CCn1c(=O)c2c(nc3n2CCCN3Cc2ccccc2)n(C)c1=O,-3,/,/,/,-2.1,
CN(C)/C=N/C(=S)Nc1ccccc1F,-6,-8%,-2,-8,-2.1,
COc1cc(C2C(C(=O)OCCC#N)=C(C)NC3=C2S(=O)(=O)c2ccccc23)cc(OC)c1OC (stereo not given),4,-3%,4,-6,-10.0,
COC(=O)c1ccccc1NC(=O)CCCN1C(=O)C(c2ccccc2)Oc2cccnc21 (stereo not given),2,/,/,/,4.6,

# Reprinted from the part before: seven entries; new compounds follow.
SMILES,Mtb betalactam,Mtb H37Rv,Arbovirus inh,YopH PTP inh,RecA splice inh,others
N#CCCn1cc(C(=O)Nc2ccccc2Cl)c(-c2ccc([N+](=O)[O-])cc2)n1,-2,11%,4,-19,0.8,
COc1ccc(CCNC(=O)CCCc2ccccc2)cc1,-2,/,/,/,0.7,
COCCNC(=O)NC(=O)CN1CCN(C(c2ccccc2)c2ccccc2)CC1,6,-4%,1,/,-0.2,
C=CCn1c(=O)c2c(nc3n2CCCN3Cc2ccccc2)n(C)c1=O,-3,/,/,/,-2.1,
CN(C)/C=N/C(=S)Nc1ccccc1F,-6,-8%,-2,-8,-2.1,
COc1cc(C2C(C(=O)OCCC#N)=C(C)NC3=C2S(=O)(=O)c2ccccc23)cc(OC)c1OC (stereo not given),4,-3%,4,-6,-10.0,
COC(=O)c1ccccc1NC(=O)CCCN1C(=O)C(c2ccccc2)Oc2cccnc21 (stereo not given),2,/,/,/,4.6,
Cc1[nH]c2ccccc2c1C(=O)C(=O)NCCCc1ccccc1,-5,/,/,/,-1.4,
CON(C)c1nc(OCCNC(=O)OCc2ccc(Cl)cc2C)nc(N(C)C)n1,-5,-11%,-6,4,-2.4,
c1ccc(-c2cc(-c3nnc4sc(-c5ccccn5)nn34)[nH]n2)cc1,1,/,-3,-25,1.5,
Cc1nc2ccccn2c1-c1nnco1,4,-1%,-1,-19,1.6,
COc1ccccc1N1CCN(C(=O)CSc2nc(C)c(Cc3ccccc3)c(=O)[nH]2)CC1,-10,3%,7,-43,1.1,
Cc1cc(/C=C(/C#N)C(=O)O)c(C)n1CCC(C)C,3,-4%,0,-5,-3.1,
O=C(CNCCc1ccc(F)cc1)Nc1cc(F)ccc1F,1,/,/,/,0.5,
O=C(NCc1ccccc1)c1cc(-c2cccs2)on1,-4,-7%,1,-51,0.5,
CC1(C)C(=O)C2(C(=O)NCc3ccccc3)CCC1C2 (stereo not given),-14,-2%,4,-5,2.4,
Cc1ccccc1NC(=O)c1cccc(C(F)(F)F)c1,-2,5%,-7,-23,1.4,
COc1ccc(NC(=O)N2CCCC2C(=O)Nc2ccc(C)cc2C)cc1 (stereo not given),-3,/,/,/,-12,
O=C(CSc1nc2ncc(Br)cc2[nH]1)Nc1ccccc1-c1ccccc1,20,/,/,/,-3.0,
N=c1nc(N)nc2n1NC(c1ccc(F)cc1)=CS2,74,9%,23,-13,-3.1,
Cc1cc(NC(=O)CN2C(=O)S/C(=C\c3ccccc3)C2=O)no1,-1,5%,-7,-23,-0.8,
C=CCOC(=O)C1=C(C)NC(SCC(N)=O)=C(C#N)C1c1cccs1 (stereo not given),-1,-2%,-5,-19,-0.7,
O=C(CCS(=O)(=O)Cc1ccc(Cl)cc1)NCCCN1CCN(c2ccccc2F)CC1,/,-2%,7,6,0.6,
CCOC(=O)c1cc2n(n1)C(C(F)(F)C(F)(F)F)CC(C)N2 (stereo not given),-8,-2%,2,-2,-0.3,
Cc1ccc(NC(=O)CSCC(=O)NCCc2ccccc2)cc1,13,/,/,/,-0.6,
O=C1ON=C(c2cccc([N+](=O)[O-])c2)/C1=C/c1ccc(O)cc1,-2,3%,16,/,2.1,
Cc1ccc(NC(=S)N2CC(C)OC(C)C2)cc1C (stereo not given),-1,/,/,/,-2.8,
O=C(CN1C(=O)/C(=C\c2cccc(F)c2)Oc2ccccc21)N1CCN(c2ccccn2)CC1,6,-3%,-12,-36,-9.4,
Cc1ccc(C(=O)n2nnc3ccccc32)cc1[N+](=O)[O-],8,-3%,-5,-16,-0.5,
O=C(NC1CCN(C(=O)c2ccccc2Br)CC1)c1ccccc1,3,/,/,/,0.5,
Cc1nc(NC(=O)C2CC2)sc1C(=O)Nc1cccc(Cl)c1,-2,/,/,/,-0.4,
NCCCC[C@@H](C(=O)N1CCNCC1)n1cc([C@@H](N)CO)nn1,0,-7%,4,/,-1.6,
CCCC[n+]1ccn(-c2nc3c([N+](=O)[O-])cccc3n2C)c1,-8,/,/,/,1.7,
Cc1ccc2c(c1)N(C(=O)CCC(=O)NCCCN1CCN(C)CC1)CCO2,-8,/,/,/,2.9,
CC(=O)N1/C(=C/c2ccc(N(C)C)cc2)C(=O)c2ccccc21,/,3%,-34,/,0.4,
CCCCN(C(=O)c1cc(-c2ccco2)nc2ccccc12)c1c(N)n(CCCC)c(=O)[nH]c1=O,-11,/,/,/,-0.7,
Cn1cnc([N+](=O)[O-])c1Oc1cccc2ccccc12,93,13%,-29,-14,36*,
CCCCCSc1nc2c(c(=O)[nH]c(=O)n2C)n1CC,-5,7%,7,-9,12,Arbovirus inh repeat=4
Cc1ccccc1NC(=O)COC(=O)c1c[nH]c(=O)[nH]c1=O,1,-1%,11,/,-3.7,
O=C(NCc1ccc2c(c1)OCO2)C1CCN(c2ncccn2)CC1,-3,0%,-4,-46,0.5,
CN1CCN(CP(=O)(N2CCOCC2)N2CCOCC2)CC1,-2,1%,-2,-29,/,
CN(C)c1ccc(CNc2ccc3c(c2)ncn3C(C)(C)C)cc1,-9,/,/,/,-2.4,
O=C(NCC(=O)N(CC1CCCO1)C(C(=O)NC1CCCC1)c1ccc(F)cc1)c1ccco1 (stereo not given),-3,-9%,-7,-8,-0.4,
CCCCN1C(=O)/C(=C/C=C2\Oc3ccccc3N2CC)SC1=S,/,2%,-6,/,-0.6,
O=C1CC(NS(=O)(=O)c2ccc([N+](=O)[O-])cc2)CN1c1ccc2c(c1)OCCO2 (stereo not given),-4,/,/,/,-1.3,
Cn1c(N)c(C(=O)COC(=O)c2ccc(S(=O)(=O)N3CCCCC3)cc2)c(=O)n(C)c1=O,-9,-4%,7,/,0.8,
N#Cc1c(Nc2ccccc2)c(C=NCCN2CCOCC2)c[nH]c1=O,88,0%,3,-43,-4.1,
CCOc1ccc(NC(=O)c2ccc(C#CC(C)(C)O)cc2)cc1,25,33%,1,-31,2.3,
CCOC(=O)NC(=S)Nc1c(C)n(C)n(-c2ccccc2)c1=O,-2,7%,-3,/,/,
O=C(NCc1cc(Br)cc(Br)c1OC(=O)c1ccccc1[N+](=O)[O-])c1ccccc1,6,7%,30,-28,16,
COC(=O)c1[nH]c2c(c1C(=O)OC)CCc1ccccc1-2,-2,/,/,/,-3.8,
COc1cc(C(=O)NCc2cc3cc(Cl)ccc3n2C)cc(OC)c1OC,6,/,/,/,0.2,
CNC[C@H](O)c1ccc(O)c(O)c1,2,7%,-1,-17,-4.4,
CCOC(=O)c1sc(=NC(=O)c2ccco2)n(C)c1C,-5,/,0,/,-7.9,
COC(=O)C1=C(C)NC(C)=C(C(=O)OC)C1c1cn(-c2ccccc2)nc1-c1ccco1,-6,-5%,-28,-40,0.2,
Cc1cc(C)n2[nH]c(=O)c(N=Nc3ccccc3)c2n1,25,-12%,0,-21,-2.3,
O=c1[nH]c(Nc2nc3ccccc3o2)nc2c1CCCC2,5,8%,-11,-18,11,
O=C(COC(=O)CNC(=O)c1ccc(Cl)cc1)Nc1ccc(Cl)cc1C(F)(F)F,-7,-4%,-5,-21,-5.6,
N/C(=N\OC(=O)C1CCCCC1)c1ccc(Br)cc1,-2,/,/,/,4.5,
COc1ccc(S(=O)(=O)N2CCCOC2CNC(=O)C(=O)NCCc2ccco2)cc1 (stereo not given),-10,/,/,/,4.4,
Cc1ccc(CN2CCN(Cc3cccc(-n4cccn4)c3)CC2CCO)cc1 (stereo not given),-5,5%,3,/,-1.3,
Cc1cccc(C)c1NC(=O)CCS(=O)(=O)c1cccc2nsnc12,2,-3%,18,-2,-1.1,
O=C1CC(c2cccs2)c2cc3c(cc2N1)OCO3 (stereo not given),?,-7%,-1,-39,3.7,
Cc1ccc(-n2ncc3c(NNC(=O)Cc4ccccc4)ncnc32)cc1,-3,7%,2,-18,1.8,
NC(=O)Cc1ccc(Nc2nnc(-c3ccc(O)cc3)c3ccccc23)cc1,8,8%,0,-6,2.4,
CCC(C)NC(=O)Cn1nc(C(F)(F)F)c2c1CCCC2 (stereo not given),-4,1%,-3,-17,-3.4,
CCOc1ccc2nc(N3CCCC(C(=O)N4CCN(CC)CC4)C3)sc2c1 (stereo not given),-4,-9%,-16,-34,3.5,Arbovirus inh repeat=2

# Fetched by compound from the list above (two):
SMILES,Mtb betalactam,Mtb H37Rv,Arbovirus inh,YopH PTP inh,RecA splice inh,others
N/C(=N\OC(=O)C1CCCCC1)c1ccc(Br)cc1,-2,/,/,/,4.5,
CCOc1ccc2nc(N3CCCC(C(=O)N4CCN(CC)CC4)C3)sc2c1 (stereo not given),-4,-9%,-16,-34,3.5,Arbovirus inh repeat=2

# (more compounds)
SMILES,Mtb betalactam,Mtb H37Rv,Arbovirus inh,YopH PTP inh,RecA splice inh,others
CC(C)Oc1ccc(C(CC(=O)O)NC(=O)c2cccs2)cc1 (stereo not given),-4,-8%,6,-12,-6.2,
CCS(=O)(=O)Nc1cccc(C(=O)CC2(O)C(=O)Nc3ccccc32)c1 (stereo not given),-1,1%,-4,-35,-2.6,
CCn1cc(C(=O)N2CCN(c3ccc([N+](=O)[O-])cc3)CC2)c(=O)c2ccc(C)nc21,1,7%,4,/,2.2,
O=c1c(C(c2ccc(Cl)cc2)c2c(O)nc3n(c2=O)CCS3)c(O)nc2n1CCS2,4,-4%,/,/,-4.8,
COc1cc(OC)cc(-c2nnc(SCc3cccc(C(=O)O)c3)o2)c1,-4,-8%,16,-24,/,
CCN(c1cccc(C)c1)S(=O)(=O)c1ccc2c(c1)oc(=O)n2C,-1,/,/,/,2.0,
Cc1ccccc1NC(=S)N(Cc1cccs1)C1CCCCC1,1,-1%,8,/,5.3,
COCCCNC(=O)Cn1cnc2sc(C)c(S(=O)(=O)N3CCN(c4ncccn4)CC3)c2c1=O,-8,4%,1,/,-0.2,
CN(CCC#N)C(=O)COC(=O)C1c2ccccc2Oc2ccccc21,0,/,/,/,-2.3,
Cc1nn2c(N3CCN(C)CC3)c3c(nc2c1-c1ccccc1)CCCC3,1,-2%,/,/,-0.4,
O=C(Nc1ccc(F)cc1)c1cccc(N2C(=O)c3ccccc3C2=O)c1,-5,/,/,/,-0.1,
CN(Cc1ccccc1)C(=O)COC(=O)C1CCN(S(=O)(=O)c2ccc3c(c2)OCCO3)CC1,-2,/,/,/,1.2,
CCOc1ccc(N2C(=O)c3cccnc3C2Nc2ccc(Cl)cc2)cc1 (stereo not given),-2,15%,4,-32,1.1,

# These rows are one share of the data; count on the stated rates, not on these rows.
